Vaccinia inh = blocks a specific stage of Vaccinia orthopoxvirus infection; 89,000 tested, 0.01% active; activity change (mCherry), % (concentration not given with the values); Vaccinia-infected cells, mCherry/Venus stage reporter fluorescence; stronger effect = lower value; some inactives read as strong as hits; AID 1053133;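 active = mCherry past -33% and 40 or more points under the early reporter, replicates agreeing; inconclusive = past -33% without that gap or agreement; tested in A549 cells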;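 note: scaled between vehicle wells and reference inhibitor wells; 23 nL library stock went into each well; one replicate is shown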
Vaccinia inh Venus = recorded beside Vaccinia inh, whose call it bears; activity change (Venus), %; measured here: Venus reporter, other viral stage;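 negative = less Venus signal; first of two replicates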
* = called active by the depositor; ? = inconclusive; · = not tested or not shown. Only part of the results is shown (hit frequency here may not be typical).

SMILES	Vaccinia inh Venus	Vaccinia inh
O=C(C[C@@H]1C=C[C@@H](NC(=O)CC2CC2)[C@@H](CO)O1)NCc1ccc(-c2ccccc2)cc1	-1	10
COc1ccc(NC(=O)N(C)C[C@H]2OCc3ccccc3-c3ccccc3C(=O)N([C@H](C)CO)C[C@@H]2C)c(OC)c1	20	35
CC(C)(C)[S@@](=O)N1Cc2cc(C(=O)NCc3ccncc3)nc(-c3cccc(-c4ccncc4)c3)c2[C@H]1CCO	11	3
C[C@H](CO)N1C[C@H](C)[C@H](CN(C)C)Oc2c(NC(=O)Nc3ccc4c(c3)OCO4)cccc2C1=O	-1	2
CC(C)NC(=O)Nc1ccc2c(c1)C(=O)N([C@@H](C)CO)C[C@H](C)[C@H](CN(C)C(=O)NC1CCCCC1)OCCCC[C@@H](C)O2	9	20
CCCN1C[C@@H](C)[C@H](OC)CN(C)C(=O)c2ccc(NC(=O)c3ccc4c(c3)OCO4)cc2OC[C@H]1C	·	?
COc1ccc(S(=O)(=O)N2CC[C@@H]3[C@@H](CO)Nc4ccc(-c5ccc(C#N)cc5)cc4[C@@H]32)cc1	-14	-15
O=C(Nc1cccc(F)c1)N[C@H]1CC[C@H](CCn2cc(Cc3ccccc3)nn2)O[C@H]1CO	1	-6
COCC(=O)N1CCC2(CC1)CN(C(=O)c1ccccn1)[C@@H](CO)c1c2c2ccc(OC)cc2n1C	10	11
COc1cccc(-c2ccc([C@H]3[C@H]4CN(C(=O)NC(C)C)CC(=O)N4[C@H]3CO)cc2)c1	-14	-2
COc1ccc(S(=O)(=O)N(C)C[C@@H]2OCCCC[C@H](C)Oc3ccc(N(C)C)cc3C(=O)N([C@H](C)CO)C[C@@H]2C)cc1	-10	-8
CC(C)C#Cc1cnc2c(c1)C(=O)N([C@H](C)CO)C[C@H](C)[C@H](CN(C)C(=O)CC1CC1)O2	-5	0
O=C(Nc1ccc(Cl)cc1)N[C@@H]1CC[C@H](CCNS(=O)(=O)c2ccccc2F)O[C@@H]1CO	-7	-6
C[C@H](CO)N1C[C@H](C)[C@@H](CN(C)C(=O)Nc2ccc3c(c2)OCO3)Oc2ccc(NS(=O)(=O)c3cccs3)cc2C1=O	14	36
O=C(NCC[C@@H]1CC[C@@H](NC(=O)C2CCCCC2)[C@H](CO)O1)c1cnccn1	-1	-3
CCCNC(=O)N1CC2(CN(Cc3ccncc3)C2)c2c(n(C)c3cc(OC)ccc23)[C@H]1CO	6	0
CCCNC(=O)[C@H]1[C@H](CO)[C@H]2Cn3c(ccc(-c4ccncc4)c3=O)[C@H]2N1C(=O)c1ccccc1F	0	-7
C[C@@H]1CN([C@H](C)CO)C(=O)c2cc(NC(=O)Nc3cccc4ccccc34)ccc2O[C@H]1CN(C)Cc1ccncc1	-7	-10
O=C(C[C@@H]1C[C@H]2c3cc(NC(=O)Nc4ccc(C(F)(F)F)cc4)ccc3O[C@H]2[C@H](CO)O1)NCc1ccccn1	-19	-31
C#CCNC(=O)C1=C[C@@H](c2csc3ccccc23)C[C@@H](OCc2ccc(CO)cc2)O1	9	11

A portion of the results above:
SMILES	Vaccinia inh Venus	Vaccinia inh
O=C(C[C@@H]1C=C[C@@H](NC(=O)CC2CC2)[C@@H](CO)O1)NCc1ccc(-c2ccccc2)cc1	-1	10
COc1ccc(NC(=O)N(C)C[C@H]2OCc3ccccc3-c3ccccc3C(=O)N([C@H](C)CO)C[C@@H]2C)c(OC)c1	20	35
CC(C)(C)[S@@](=O)N1Cc2cc(C(=O)NCc3ccncc3)nc(-c3cccc(-c4ccncc4)c3)c2[C@H]1CCO	11	3
C[C@H](CO)N1C[C@H](C)[C@H](CN(C)C)Oc2c(NC(=O)Nc3ccc4c(c3)OCO4)cccc2C1=O	-1	2
CC(C)NC(=O)Nc1ccc2c(c1)C(=O)N([C@@H](C)CO)C[C@H](C)[C@H](CN(C)C(=O)NC1CCCCC1)OCCCC[C@@H](C)O2	9	20
CCCN1C[C@@H](C)[C@H](OC)CN(C)C(=O)c2ccc(NC(=O)c3ccc4c(c3)OCO4)cc2OC[C@H]1C	·	?
COc1ccc(S(=O)(=O)N2CC[C@@H]3[C@@H](CO)Nc4ccc(-c5ccc(C#N)cc5)cc4[C@@H]32)cc1	-14	-15

Other structures
SMILES	Vaccinia inh Venus	Vaccinia inh
N#C[C@H]1[C@H](c2ccccc2)[C@H](CO)N1C(=O)c1cc(Cl)cc(Cl)c1	-13	-11
C[C@H](CO)N1C[C@H](C)[C@H](CN(C)S(=O)(=O)c2ccccc2)Oc2c(NC(=O)c3ccc(-c4nccs4)cc3)cccc2C1=O	11	10
CO[C@@H]1CN(C)C(=O)c2ccc(NC(=O)c3cccc(F)c3)cc2OC[C@@H](C)NC[C@@H]1C	-7	-4
CC(C)NC(=O)N[C@@H]1CC[C@H](CCn2cc(-c3ccc(F)cc3)nn2)O[C@H]1CO	-1	-1
C[C@H]1CN([C@@H](C)CO)C(=O)c2cc(NC(=O)C3CCCCC3)ccc2O[C@H]1CN(C)Cc1ccc(C(=O)O)cc1	2	14
C[C@H]1CN([C@@H](C)CO)C(=O)c2cc(C#CC3CCCC3)cnc2O[C@@H]1CN(C)C(=O)C1CC1	2	-3
CC(C)NC(=O)Nc1ccc2c(c1)C(=O)N([C@H](C)CO)C[C@H](C)[C@H](CN(C)S(=O)(=O)c1ccc(Cl)cc1)OCCCC[C@H](C)O2	-20	-26
C[C@@H]1CCCCO[C@@H](CN(C)C(=O)Nc2ccc(F)cc2)[C@H](C)CN([C@@H](C)CO)C(=O)c2cc(NC(=O)c3ccncc3)ccc2O1	-2	10
COc1cccc(S(=O)(=O)Nc2ccc3c(c2)[C@H]2C[C@@H](CC(=O)N4CCCCC4)O[C@@H](CO)[C@H]2O3)c1	1	-4
C[C@H]1CN([C@@H](C)CO)C(=O)c2cc(C#CCc3ccccc3)cnc2O[C@@H]1CN(C)C(=O)C1CCC1	-9	-4
COCCOC(=O)N1C(=O)[C@@]2(c3cc(C#CCCO)ccc31)[C@H](C(=O)N1CCc3cc(OC)c(OC)cc3C1)[C@H]1C(=O)O[C@H](c3ccccc3)[C@H](c3ccccc3)N1[C@@H]2c1ccccc1OCCO	-6	-7
CN(C)CCCNC(=O)C[C@@H]1C=C[C@@H](NS(=O)(=O)c2ccc(F)cc2)[C@@H](CO)O1	14	29
CO[C@H]1CN(C)C(=O)c2ccc(NC(C)=O)cc2OC[C@@H](C)N(C(=O)CC2CC2)C[C@@H]1C	-4	-7
CCCC(=O)Nc1ccc2c(c1)OC[C@H](C)N(Cc1ccccc1)C[C@H](C)[C@H](OC)CN(C)C2=O	6	12
O=C(C1CCOCC1)N1CC(=O)N2[C@H](CO)[C@@H](c3ccc(C#CC4CCCCC4)cc3)[C@@H]2C1	·	?
C[C@H](CO)N1C[C@H](C)[C@@H](CN(C)Cc2ccncc2)Oc2c(NC(=O)Nc3ccccc3)cccc2C1=O	9	0
C[C@@H]1CN([C@H](C)CO)C(=O)c2cc(N(C)C)ccc2O[C@@H](C)CCCCO[C@@H]1CN(C)C	3	3
C[C@H](CO)N1C[C@H](C)[C@@H](CN(C)Cc2ccncc2)Oc2ccc(NC(=O)C3CCCCC3)cc2CC1=O	2	-6
CNC[C@@H]1Oc2ccc(NS(=O)(=O)c3ccc(Cl)cc3)cc2C(=O)N([C@@H](C)CO)C[C@H]1C	3	5
O=C(C[C@@H]1CC[C@@H]2[C@H](COC[C@H](O)CN2S(=O)(=O)c2ccc(Cl)cc2)O1)N[C@@H]1CCN(Cc2ccccc2)C1	-15	-22

SMILES	Vaccinia inh Venus	Vaccinia inh
Cc1noc(C)c1NC(=O)N(C)C[C@H]1Oc2c(NC(=O)c3ccc(-c4nccs4)cc3)cccc2C(=O)N([C@H](C)CO)C[C@H]1C	-13	-1
C[C@H]1CN([C@@H](C)CO)C(=O)c2cc(C#Cc3ccccc3F)cnc2O[C@@H]1CN(C)S(=O)(=O)c1ccccc1F	-8	-21
CN(C)C(=O)c1ccc(-c2cccc(-c3nc(C(=O)NC4CCCC4)cc4c3[C@@H](CCO)N([S@](=O)C(C)(C)C)C4)c2)cc1	19	-17
C[C@H](CO)N1C[C@H](C)[C@@H](CN(C)C(=O)CCCN(C)C)OCc2cnnn2CCCC1=O	6	10
C[C@H](CO)N1C[C@H](C)[C@@H](CN(C)S(C)(=O)=O)Oc2cc(C#CCN(C)C)ccc2S1(=O)=O	0	1
CCCC#Cc1ccc([C@@H]2[C@@H](CO)N3CCCCN(Cc4ccncc4)C[C@@H]23)cc1	8	4
Cc1noc(C)c1NC(=O)Nc1ccc2c(c1)C(=O)N([C@@H](C)CO)C[C@H](C)[C@H](CN(C)C(=O)Nc1ccccc1)OCCCC[C@H](C)O2	18	20
N#C[C@H]1[C@@H](c2ccccc2C2=CCCCC2)[C@H](CO)N1C(=O)c1cccc(F)c1	-11	-10
Cc1ccc(S(=O)(=O)N(C)C[C@H]2Oc3ccc(NC(=O)Cn4cnnn4)cc3CC(=O)N([C@@H](C)CO)C[C@H]2C)cc1	15	22
OC[C@@H]1CC[C@@H]2O[C@H](CCc3ccc(-c4ccc(F)cc4)cc3)[C@H](n3cc(C4CC4)nn3)C[C@@H]2O1	-20	-22
CCC(=O)N1C[C@H](C)[C@@H](OC)CN(C)C(=O)c2ccc(NC(=O)Nc3cccc(F)c3)cc2OC[C@H]1C	0	-2
C[C@H]1CN([C@@H](C)CO)C(=O)Cc2cc(NC(=O)Nc3ccccc3)ccc2O[C@@H]1CN(C)S(=O)(=O)c1ccc(Cl)cc1	-4	-11
CO[C@H]1CN(C)C(=O)c2ccc(NC(=O)Nc3ccccc3)cc2OC[C@@H](C)N(C(=O)CN(C)C)C[C@H]1C	3	6
COCC(=O)Nc1ccc2c(c1)C(=O)N(C)C[C@H](OC)[C@@H](C)CN(C(=O)c1ccncc1)[C@H](C)CO2	3	-3
COc1cccc(CN2CCC3(CC2)CN(C(=O)C2CC2)[C@H](CO)c2c3c3ccc(OC)cc3n2C)c1	·	?
C/C=C/c1ccc([C@@H]2[C@H](CO)N3C(=O)CN(Cc4ccc(C)cc4)C[C@@H]23)cc1	2	2
CO[C@H]1CN(C)C(=O)c2ccc(NC(=O)C3CCC3)cc2OC[C@H](C)N(CC2CCCCC2)C[C@@H]1C	·	?
O=C(c1cnccn1)N1CC(=O)N2[C@@H](CO)[C@H](c3ccc(-c4cccc(F)c4)cc3)[C@@H]2C1	0	3
O=C(C[C@@H]1CC[C@H]2[C@@H](COC[C@H](O)CN2Cc2ccncc2)O1)NCc1ccncc1	5	9
CCCNC(=O)N1C[C@H](C)[C@H](OC)CN(C)C(=O)c2ccc(NS(C)(=O)=O)cc2OC[C@H]1C	6	-1

Quoted from the listing:
Entry of CO[C@H]1CN(C)C(=O)c2ccc(NC(=O)Nc3ccccc3)cc2OC[C@@H](C)N(C(=O)CN(C)C)C[C@H]1C under Vaccinia inh: 6
Entry of N#C[C@H]1[C@@H](c2ccccc2C2=CCCCC2)[C@H](CO)N1C(=O)c1cccc(F)c1 under Vaccinia inh Venus: -11
Entry of C[C@H](CO)N1C[C@H](C)[C@@H](CN(C)S(C)(=O)=O)Oc2cc(C#CCN(C)C)ccc2S1(=O)=O under Vaccinia inh Venus: 0
Entry of OC[C@@H]1CC[C@@H]2O[C@H](CCc3ccc(-c4ccc(F)cc4)cc3)[C@H](n3cc(C4CC4)nn3)C[C@@H]2O1 under Vaccinia inh Venus: -20

Entries listed so far that contain two or more sulfur atoms:
SMILES	Vaccinia inh Venus	Vaccinia inh
C[C@H](CO)N1C[C@H](C)[C@@H](CN(C)C(=O)Nc2ccc3c(c2)OCO3)Oc2ccc(NS(=O)(=O)c3cccs3)cc2C1=O	14	36
C[C@H](CO)N1C[C@H](C)[C@H](CN(C)S(=O)(=O)c2ccccc2)Oc2c(NC(=O)c3ccc(-c4nccs4)cc3)cccc2C1=O	11	10
C[C@H](CO)N1C[C@H](C)[C@@H](CN(C)S(C)(=O)=O)Oc2cc(C#CCN(C)C)ccc2S1(=O)=O	0	1

Going on with the list.
SMILES	Vaccinia inh Venus	Vaccinia inh
COCC#Cc1cnc2c(c1)C(=O)N([C@@H](C)CO)C[C@H](C)[C@H](CN(C)Cc1ccccc1)O2	14	17
COc1ccc(NC(=O)N[C@@H]2CC[C@H](CCn3cc(-c4ccccn4)nn3)O[C@@H]2CO)cc1	9	4
C[C@H](CO)N1C[C@H](C)[C@H](CN(C)Cc2ccc(-c3ccccc3)cc2)Oc2c(NC(=O)C3CC3)cccc2C1=O	10	5
Cc1noc(C)c1S(=O)(=O)N(C)C[C@H]1OCCCC[C@@H](C)Oc2ccc(NS(=O)(=O)c3cccs3)cc2C(=O)N([C@@H](C)CO)C[C@@H]1C	·	?
CO[C@H]1CN(C)C(=O)c2cc(NC(=O)c3cnccn3)ccc2OC[C@@H](C)N(CC2CC2)C[C@@H]1C	10	16

Screening data: PubChem BioAssay, Broad Institute
